Source: PubChem BioAssay (Broad Institute)
AF4-AF9 inh – blocks AF4 peptide binding to human AF9 | AlphaScreen, biotin-AF4 peptide binding to FLAG-AF9 | inhibition, % at 10 µM | 350,000 tested, 0.47% active | AID 651704;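 active = every replicate reaching a set inhibition limit, whatever the replicate mean, cut at about 25% in these data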;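 note: 0% = plate neutral control median and 100% = total signal loss; the record names both 10 and 1 µM as test concentration; the first replicate is given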
Target sequence (P42568 whole entry, looked up): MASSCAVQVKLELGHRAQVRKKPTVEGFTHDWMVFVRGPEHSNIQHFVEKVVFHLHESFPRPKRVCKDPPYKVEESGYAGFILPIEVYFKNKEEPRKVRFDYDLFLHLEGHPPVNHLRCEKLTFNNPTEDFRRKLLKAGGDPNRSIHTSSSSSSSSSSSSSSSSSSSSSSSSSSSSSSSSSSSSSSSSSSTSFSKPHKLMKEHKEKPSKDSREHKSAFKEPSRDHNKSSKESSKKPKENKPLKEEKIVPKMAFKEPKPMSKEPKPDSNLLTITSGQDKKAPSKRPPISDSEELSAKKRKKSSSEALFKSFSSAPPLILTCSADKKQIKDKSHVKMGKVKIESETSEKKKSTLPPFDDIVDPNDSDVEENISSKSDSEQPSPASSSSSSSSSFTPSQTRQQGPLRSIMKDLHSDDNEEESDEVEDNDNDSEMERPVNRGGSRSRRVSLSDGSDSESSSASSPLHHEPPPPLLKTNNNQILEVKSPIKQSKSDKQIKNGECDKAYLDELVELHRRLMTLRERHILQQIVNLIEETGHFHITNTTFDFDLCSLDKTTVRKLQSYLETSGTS
rRNA inh HTS – inhibitors of bacterial rRNA selective over humanized ribosomes; E. coli WT GFP vs humanized-ribosome RFP mutants, fluorescence, 24 h; active compounds read low; DMSO median 0, no signal -100; GFP signal change (wild-type ribosome), % (test concentration not listed); 350,000 tested, 1.6% active;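 active = significant combined selectivity score with lowered wild-type GFP, culture density cut under 30%, mutant RFP and density less affected; inactive = any of these conditions unmet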; note: one replicate is shown; some compounds called inactive have numbers as strong as hits
FGF22 binding – shifts melting point of recombinant human FGF22; Q9HCT0; recombinant FGF22 thermal shift, SYPRO orange fluorescence; percent of sucrose octasulfate shift, DMSO zero; calls only at 9.99 µM; 340,000 tested, 1.5% active; AID 651658;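 active = melting point raised past a set limit in the mean and every replicate; three in four hits are not shown here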
Target sequence (Q9HCT0 whole entry, looked up): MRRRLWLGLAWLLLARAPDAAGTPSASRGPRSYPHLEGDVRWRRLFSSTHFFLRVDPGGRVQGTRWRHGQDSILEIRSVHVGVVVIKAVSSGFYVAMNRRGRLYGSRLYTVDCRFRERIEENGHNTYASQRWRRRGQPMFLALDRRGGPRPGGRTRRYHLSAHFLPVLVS
rRNA inh HTS OD600 – second read-out of rRNA inh HTS, no call of its own (marks repeat the call); OD600 change, %; measured here: OD600 growth;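 optical density of the mix in the first replicate; 0 = DMSO median and -100 = no signal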
rRNA inh HTS RFP – further read-out of rRNA inh HTS, marked with its call; RFP signal change, %; measured here: RFP humanized mutant strains;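 first replicate; 0 = DMSO median and -100 = no signal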
* = called active by the depositor; i = inactive; · = not tested or not shown; & = joins results of further samples. A portion of the library. The share of hits here may be higher or lower than overall.

SMILES | AF4-AF9 inh | rRNA inh HTS | rRNA inh HTS OD600 | rRNA inh HTS RFP | FGF22 binding
O=C(NC1CCC1)[C@H]1[C@H](CO)[C@H]2Cn3c(ccc(-c4ccccc4)c3=O)[C@@H]1N2CC1CC1 | -1.3 | -3 | -3 | -1.1 | i
CNC[C@@H]1Oc2ccc(NC(=O)Cn3cnnn3)cc2CC(=O)N([C@H](C)CO)C[C@H]1C | -2.5 | 6 | 16 | -1.6 | i
CC(C)C#Cc1cnc2c(c1)C(=O)N([C@H](C)CO)C[C@@H](C)[C@H](CN(C)C(=O)c1ccc3c(c1)OCO3)O2 | -0.8 | 0 | -4 | -0.2 | i
C[C@@H]1CN([C@H](C)CO)C(=O)c2cc(-c3ccc(C(=O)N(C)C)cc3)cnc2O[C@@H]1CN(C)C(=O)C1CC1 | -6.1 | 3 | 18 | -3.8 | i
C[C@@H]1CN([C@@H](C)CO)C(=O)c2cc(-c3cccnc3)cnc2O[C@H]1CN(C)Cc1ccc(Oc2ccccc2)cc1 | 4.9 | -3 | 1 | 0.3 | i
C[C@@H]1CN([C@H](C)CO)C(=O)c2cc(NS(=O)(=O)c3cn(C)cn3)ccc2O[C@@H](C)CCCCO[C@H]1CN(C)S(=O)(=O)c1cn(C)cn1 | -8.6 | -2 | 1 | -3.5 | i
CN(C)CC(=O)N1[C@@H](C#N)[C@H](c2ccc(C#CC3CC3)cc2)[C@@H]1CO | 1.6 | 2 | -2 | 3.0 | i
Cc1ccc(S(=O)(=O)N(C)C[C@@H]2OCCCC[C@@H](C)Oc3ccc(NC(=O)Nc4ccccc4)cc3C(=O)N([C@H](C)CO)C[C@@H]2C)cc1 | -0.9 | 2 | 3 | -2.6 | i
COCC(=O)n1nc(-c2ccc(C)cc2)nc1NCc1ccc(F)cc1 | -0.3 | 10 | 3 | 2.2 | i
COCC(=O)Nc1ccc2c(c1)OC[C@@H](C)N(Cc1cccc(F)c1)C[C@H](C)[C@H](OC)CN(C)C2=O | 8.1 | -9 | -9 | 4.0 | i
Cc1cc(C([O-])=C(C(=S)Nc2ccccc2)[n+]2ccccc2)c(C)n1-c1ccccc1 | 3.0 | 9 | 24 | 8.9 | i
Cc1ccc(C(C#N)=Cc2ccc3c(c2)OCO3)cc1 | 7.0 | -30 | -54 | -7.6 | i
C#CCOCCOCCOCCNc1nc(N2CCN(C(=O)[C@H](C(C)C)n3cc(CCO)nn3)CC2)nc(N2CCN(C(=O)[C@H](C)n3cc(CCCN=C(N)N)nn3)CC2)n1 | -17 | 13 | 14 | -6.8 | i
CC(C)(C)c1ccc(C#C[C@@H]2C=C[C@@H](O)[C@@H](CO)O2)cc1 | -8.2 | 3 | -10 | 0.7 | ·
C[C@H]1CN([C@@H](C)CO)C(=O)CCCn2nncc2CO[C@H]1CN(C)C(=O)Nc1ccc(C(F)(F)F)cc1 | 0.4 | -26 | -26 | 3.8 | i
COc1ccc(S(=O)(=O)Nc2cccc3c2O[C@@H](CN(C)C(=O)Nc2ccc4c(c2)OCO4)[C@@H](C)CN([C@H](C)CO)C3=O)cc1 | 5.8 | -8 | -9 | 0.4 | i
COc1ccccc1-c1csc(C(O)c2ccc(F)c(F)c2)n1 (stereo not given) | -2.7 | -59 | -74 | -12 | i
COc1ccc(CN2CCC(C)(Oc3cccc(F)c3)C2)c2ccccc12 (stereo not given) | 0.2 | 0 | -15 | -2.8 | i
CC(C)NC(=O)N(C)C[C@H]1Oc2c(NC(=O)Nc3ccc(C(F)(F)F)cc3)cccc2C(=O)N([C@H](C)CO)C[C@H]1C | -1.6 | -1 | -1 | 0.1 | i
O=S1(=O)CC(N2CCC(Cc3ccccc3)CC2)CN1CCc1ccccc1 (stereo not given) | -1.0 | -16 | -45 | -2.9 | i
CCCCN(C)c1c(C)nc2ccc(C(=O)N(C)CCN(C)C)cn12 | 0.9 | 5 | 12 | 0.3 | i
CCOc1ccccc1NC(=O)/C=C/c1ccc(S(=O)(=O)N2CCOCC2)cc1 | 3.1 | -8 | -9 | 0.0 | i
Cc1noc(C)c1S(=O)(=O)Nc1ccc2c(c1)CC(=O)N([C@H](C)CO)C[C@H](C)[C@@H](CN(C)S(=O)(=O)c1ccccc1)O2 | -1.0 | -2 | -6 | 2.7 | i
COc1ccc(C(C)=O)cc1Cn1c(C)c(C(=O)NCCC#N)sc1=O | -1.8 | 10 | 15 | 5.5 | i
Cc1cc(C(=O)Nc2cccc3c2O[C@@H](CN(C)Cc2ccc(Cl)c(Cl)c2)[C@H](C)CN([C@@H](C)CO)C3=O)n(C)n1 | -0.4 | -8 | -18 | -1.2 | i
C[C@@H]1CCCCO[C@@H](CN(C)Cc2ccccc2)[C@@H](C)CN([C@H](C)CO)C(=O)c2cc(NS(=O)(=O)c3cccs3)ccc2O1 | 1.2 | 1 | -7 | 5.6 | i
Cc1cn([C@H]2C[C@H](O)[C@@H](CNC(=O)[C@H]3CCC(=O)N3)O2)c(=O)[nH]c1=O | -2.3 | 25 | 15 | 4.6 | i
O=C(NCC[C@@H]1CC[C@@H](NS(=O)(=O)c2cccc(Cl)c2)[C@H](CO)O1)c1cnccn1 | -2.2 | 0 | 4 | -1.2 | i
C[C@H]1CN([C@@H](C)CO)C(=O)c2cc(Br)cnc2O[C@H]1CN(C)CC1CCCC1 | -6.3 | 5 | 20 | -1.9 | i
C[C@@H]1CN([C@@H](C)CO)C(=O)c2cccc(NC(=O)C3CC3)c2O[C@H]1CN(C)S(=O)(=O)c1cccs1 | -1.2 | 1 | 1 | -0.5 | i
O=C(CC(O)(c1ccccc1)c1ccccc1)Nc1ccccn1 | -0.1 | 4 | -17 | 4.0 | i
O=C(C[C@@H]1C=C[C@@H](NC(=O)Nc2ccccc2F)[C@H](CO)O1)NCc1ccc(-c2ccccc2)cc1 | 2.0 | -2 | -4 | -0.6 | i
COc1ccc(S(=O)(=O)Nc2ccc3c(c2)C(=O)N([C@H](C)CO)C[C@H](C)[C@@H](CN(C)Cc2ccc(C(=O)O)cc2)OCCCC[C@H](C)O3)cc1 | -4.0 | 7 | 13 | 0.1 | i
CCCC#Cc1ccc2c(c1)O[C@@H](CN(C)Cc1cccnc1)[C@H](C)CN([C@@H](C)CO)S2(=O)=O | 3.5 | -38 | -63 | 5.9 | i
C[C@@H]1CN([C@@H](C)CO)C(=O)c2cc(NC(=O)CCC(F)(F)F)ccc2O[C@@H]1CN(C)Cc1ccc(C(=O)Nc2ccccc2N)cc1 | 0.1 | 2 | 11 | -3.2 | i
COc1cc(CN2C[C@@H](CO)O[C@@H](n3cnc4c(NCCN(C)C)ncnc43)C2)cc(OC)c1OC | 3.1 | 15 | 18 | 0.5 | i
Cc1cnc(C(=O)N(c2ccc(N3CCOCC3)cc2)C2C(=O)Nc3ccccc3N=C2c2ccc3c(c2)OCO3)cn1 (stereo not given) | 3.0 | 3 | 10 | 8.1 | i
COCCNC(=O)C1CCCN(C(=O)c2cc(C)nn2C(C)(C)C)CC1 (stereo not given) | 0.2 | 13 | 9 | -1.3 | i
C[C@H]1CN([C@@H](C)CO)C(=O)c2cccc(NC(=O)Nc3ccc(C(F)(F)F)cc3)c2O[C@@H]1CN(C)S(=O)(=O)c1ccccc1 | -10 | -2&-1 | 0&8 | 0.4&-5.8 | i
CO[C@@H]1CC[C@@H]2CCOc3c(C#N)cccc3C(=O)N(C)C[C@@H](C)C(=O)N(C)C[C@H]1O2 | -6.0 | 1 | -7 | 1.5 | i

In the list so far, two have a thiophene ring, fused or not.
SMILES | AF4-AF9 inh | rRNA inh HTS | rRNA inh HTS OD600 | rRNA inh HTS RFP | FGF22 binding
C[C@@H]1CCCCO[C@@H](CN(C)Cc2ccccc2)[C@@H](C)CN([C@H](C)CO)C(=O)c2cc(NS(=O)(=O)c3cccs3)ccc2O1 | 1.2 | 1 | -7 | 5.6 | i
C[C@@H]1CN([C@@H](C)CO)C(=O)c2cccc(NC(=O)C3CC3)c2O[C@H]1CN(C)S(=O)(=O)c1cccs1 | -1.2 | 1 | 1 | -0.5 | i

(next part)
SMILES | AF4-AF9 inh | rRNA inh HTS | rRNA inh HTS OD600 | rRNA inh HTS RFP | FGF22 binding
C[C@@H]1CN([C@@H](C)CO)C(=O)c2cc(NC(=O)Nc3ccc(C(F)(F)F)cc3)ccc2O[C@@H](C)CCCCO[C@H]1CN(C)Cc1ccncc1 | -3.2 | -5 | -15 | 5.5 | i
C[C@H]1CN([C@@H](C)CO)C(=O)c2ccccc2-c2ccccc2CO[C@@H]1CN(C)S(=O)(=O)c1ccc(C#N)cc1 | -0.3 | 7 | 0 | 4.5 | i
C[C@@H]1CN([C@@H](C)CO)C(=O)c2cccc(NC(=O)c3ccc(-c4nccs4)cc3)c2O[C@@H]1CN(C)Cc1ccc(Oc2ccccc2)cc1 | -2.6 | 1 | 9 | 0.7 | i
C/C=C/c1ccc([C@H]2[C@@H](CO)N3CCCCN(C(=O)Nc4ccccc4F)C[C@H]23)cc1 | 2.1 | 4 | 15 | 1.5 | i
CCC(=O)N1[C@@H](CO)[C@@H](c2ccccc2)C12CN(Cc1nccs1)C2 | -0.8 | 9 | 11 | -0.8 | i
O=C(Cc1ccccn1)NCC[C@H]1CC[C@@H](NC(=O)CN2CCOCC2)[C@H](CO)O1 | -0.9 | 3 | 3 | 1.2 | i
CC(=O)N(C)C[C@H]1Oc2cc(C#CC(C)C)ccc2S(=O)(=O)N([C@@H](C)CO)C[C@H]1C | -2.5 | 3 | 8 | 0.3 | i
CC1=C(C(=O)N(C)C)CC(CC(=O)NC(c2ccccc2)c2ccccc2)C(=O)N1Cc1ccc(F)cc1 (stereo not given) | 0.4 | -7 | 1 | 6.9 | i
O=C(NC1CCCC1)[C@@H]1[C@@H](CO)[C@@H]2Cn3c(ccc(-c4cccnc4)c3=O)[C@H]1N2CC1CC1 | -1.4 | -2 | 9 | -6.1 | i
Cc1ccc(S(=O)(=O)N2C[C@@H](O)COC[C@H]3O[C@H](CC(=O)N[C@H]4CCN(Cc5ccccc5)C4)CC[C@@H]32)cc1 | 0.3 | 5 | 16 | -2.2 | i

Compounds above containing a tert-butyl group:
SMILES | AF4-AF9 inh | rRNA inh HTS | rRNA inh HTS OD600 | rRNA inh HTS RFP | FGF22 binding
CC(C)(C)c1ccc(C#C[C@@H]2C=C[C@@H](O)[C@@H](CO)O2)cc1 | -8.2 | 3 | -10 | 0.7 | ·
COCCNC(=O)C1CCCN(C(=O)c2cc(C)nn2C(C)(C)C)CC1 (stereo not given) | 0.2 | 13 | 9 | -1.3 | i

Other compounds:
SMILES | AF4-AF9 inh | rRNA inh HTS | rRNA inh HTS OD600 | rRNA inh HTS RFP | FGF22 binding
COc1ccc(S(=O)(=O)N(C)C[C@@H]2Oc3ccc(NS(=O)(=O)c4ccc(C)cc4)cc3C(=O)N([C@H](C)CO)C[C@H]2C)cc1 | 0.8 | -4 | -4 | -0.5 | i
O=C1NC[C@H](CCCCN2C[C@H](Cc3ccccc3)N(CCc3ccccc3)C(=O)C2=O)N(CCC2CCCCC2)C1=O | 0.2 | 9 | 12 | -2.5 | i
COc1ccc2c3c(n(C)c2c1)[C@@H](CO)N(C(=O)C1CCCC1)CC31CCN(CC2CCCC2)CC1 | -1.7 | 1 | -4 | 2.1 | i
COc1cc(C(O)c2nc(-c3cccc(C(F)(F)F)c3)cs2)ccc1F (stereo not given) | -6.3 | -65 | -82 | -20 | i
CCOC(=O)[C@@H](NC(=O)CC[C@H]1O[C@@H](n2cc(C)c(=O)[nH]c2=O)C[C@@H]1O)C(C)C | -2.7 | 1 | 6 | -1.2 | i
C[C@@H]1CN([C@H](C)CO)C(=O)c2cc(NS(=O)(=O)c3cccs3)ccc2O[C@@H]1CN(C)Cc1ccc(-c2ccccc2)cc1 | 4.3 | 0 | -17 | 18 | i
CCCNC(=O)Nc1ccc2c(c1)OC[C@@H](C)N(C(=O)C1CCCCC1)C[C@@H](C)[C@@H](OC)CN(C)C2=O | 0.6 | -2 | -2 | -0.5 | i
C[C@H]1CN([C@@H](C)CO)C(=O)c2cc(NC(=O)NC3CCCCC3)ccc2O[C@H]1CN(C)Cc1ccc2c(c1)OCO2 | -0.8 | -1 | -2 | 0.1 | i
Cn1c(N)c(N=O)c(=O)n(C)c1=S | -0.5 | -4 | 14 | -6.5 | i
COc1ccc(CN(C)C[C@@H]2Oc3ccc(NC(=O)Cc4cn(C)c5ccccc45)cc3CC(=O)N([C@@H](C)CO)C[C@@H]2C)cc1 | 13 | 0 | 6 | -2.3 | i
C[C@@H]1CCCCO[C@H](CN(C)S(=O)(=O)c2ccc(F)cc2)[C@H](C)CN([C@@H](C)CO)C(=O)c2cc(N(C)C)ccc2O1 | 3.7 | -2 | -5 | 2.4 | i
CNC[C@H]1OCCCC[C@@H](C)Oc2ccc(N(C)C)cc2C(=O)N([C@H](C)CO)C[C@H]1C | -22 | 5 | 8 | -1.8 | i
CO[C@@H]1CN(C)C(=O)c2ccc(NC(=O)Nc3cc(F)ccc3F)cc2OC[C@H](C)N(C(=O)c2ccccn2)C[C@@H]1C | 2.5 | -4 | -6 | 0.5 | i
O=NN(C(=O)NCc1cccnc1)C1CCCCC1 | 11 | 4 | 14 | -0.2 | i
